Rango-impB inh: qHTS Assay for Inhibitors of Rango (Ran-regulated importin-beta cargo) - Importin beta complex formation | Rango CFP/YFP FRET sensor + importin beta, 45 min | Potency, µM (titrated, usually from 92.2 µM), for inactives: top-dose inhibition of complex formation | Importin subunit beta-1 (Homo sapiens), Q14974 | 0.031% of 340,000 active | AID 540263, 2011; active = rising FRET ratio curve, often small or poorly fitted; inconclusive = mostly compound fluorescence or quenching in the first reads; inactive = flat curves in all reads;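 also: potency is read from the fitted curve at half-maximal effect; 0% = DMSO wells and 100% = buffer wells lacking importin beta; nearly all actives have a fitted effect of over 15% in size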
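FRET biosensor Rango (snurportin 1 IBB between N-terminal EYFP and C-terminal Cerulean), 50 nM in PBS/1 mM DTT/0.02% Tween-20/0.1% BSA, preincubated 5 min RT with compound; 0.125 microM importin beta added, 45 min RT, CFP/YFP FRET ratio read.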
miR-21 reporter: qHTS Assay for Modulators of miRNAs and/orActivators of miR-21; HeLa miR-21 FLuc reporter, luciferase, 48 h; Potency, µM (titrated, usually from 38.3 µM), without a hit: at the highest dose reporter change, positive = more light; 340,000 tested, under 10 active; active = well fitted rising curve with a large enough effect; inconclusive = small, poorly fitted or top-dose-only effect; inactive = no such curve, though single readings can be large or run the other way;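 also: % of control where 0% means no effect; miR-21 action dims this reporter so a rising signal means less miR-21 action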
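HeLa miR-21-FLuc reporter line, endogenous miR-21; 2000 cells/well in DMEM/10% FBS; compound titration up to ~40uM final, 48 h, 37 degree Celsius; luciferase detection reagent, 15 min lysis, CCD luminescence.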
GLA inh pH 4.5: qHTS Assay for Inhibitors of Human alpha-Galactosidase at pH 4.5; activity change, negative = inhibition, % at 105 µM; Alpha-galactosidase A (Homo sapiens), P06280; purified enzyme, 4-MU-alpha-Gal fluorescence, pH 4.5; 230,000 tested, under 10 active; inconclusive = small, poorly fitted or top-dose-only inhibition, or a rising curve; inactive = flat fitted curve, though single readings scatter; no compound was filed as active;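 also: 0% = full activity with enzyme and -100% = basal without enzyme; dose as in the result columns while the protocol names 77 µM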
Target sequence (P06280 whole entry, looked up): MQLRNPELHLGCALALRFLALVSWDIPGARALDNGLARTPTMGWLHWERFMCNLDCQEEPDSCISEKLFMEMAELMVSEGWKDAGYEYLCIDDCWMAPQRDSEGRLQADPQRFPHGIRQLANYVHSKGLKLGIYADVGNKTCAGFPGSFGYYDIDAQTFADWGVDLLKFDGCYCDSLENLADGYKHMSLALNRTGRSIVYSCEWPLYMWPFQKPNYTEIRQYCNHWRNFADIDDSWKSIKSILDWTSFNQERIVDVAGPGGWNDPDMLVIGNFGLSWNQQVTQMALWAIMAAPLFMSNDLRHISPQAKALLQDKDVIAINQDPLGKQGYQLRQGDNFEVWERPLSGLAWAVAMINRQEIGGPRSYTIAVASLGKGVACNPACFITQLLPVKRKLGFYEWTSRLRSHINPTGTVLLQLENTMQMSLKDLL
Rango release inh: qHTS Assay for Inhibitors of RanGTP induced Rango (Ran-regulated importin-beta cargo) - Importin beta complex dissociation; Potency, µM (top dose mostly 46.1 µM), for inactives: top-dose activity change, negative = inhibition; AID 540253, 2011; Snurportin-1 (Homo sapiens) + GTP-binding nuclear protein Ran (Homo sapiens) + Importin …; 0.071% of 340,000 active; Biochemical FRET Rango-importin beta, RanGTP-induced dissociation; active means falling FRET ratio curve, often poorly fitted, with flat reads before Ran was added; inconclusive means other falling curves, or compound fluorescence or quenching; inactive means flat or rising ratio curve;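 also: potency is read from the fitted curve at half-maximal effect; % of control where 0% means no effect; nearly all actives have a fitted effect of over 45% in size; -100% = wells without RanGTP and RCC1; the record marks most hits as doubtful in a second field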
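Rango FRET biosensor (snurportin-1 IBB flanked by N-terminal EYFP and C-terminal CFP10) at 0.1 uM, with 0.25 uM importin beta in PBS, 1mM DTT, 0.02% Tween-20, 0.1% BSA. 0.6 uM Ran, 2mM GTP and 0.2 uM RCC1 were then added for 45 min at room temperature. Inhibition read as loss of FRET rise.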
The depositor's hits bear a star; ? = inconclusive; · = not tested or not shown; & = joins results of further samples.

molecule,Rango-impB inh,miR-21 reporter,GLA inh pH 4.5,Rango release inh
O=C(O)c1cc(N/C(=N\S(=O)(=O)c2ccc(F)cc2)c2ccccc2)ccc1O,-0.1%,·,·,12%
S=C(NCCN1CCOCC1)N1CCN(c2cccc(Cl)c2)CC1,2.8%,21%,·,10%
O=C(COC(=O)c1ccc([N+](=O)[O-])cc1)Nc1cccnc1Cl,0.4%,·,·,22%
CCc1[nH]nc2c1C(c1cccc(OC(=O)N3CCOCC3)c1)C(C#N)=C(N)O2 (stereo not drawn),0.4%,1%,-1,-10%
O=[N+]([O-])c1ccc(NCc2ccccc2N2CCC(CO)CC2)nc1,-1.4%,-4%,·,17%
Cc1ccc(N(CC(=O)NCc2ccc(F)cc2)C(=O)c2snc(C(N)=O)c2N)cc1C,?,5%,·,-12%
Nn1c(Cc2ccccc2)nc2cc(Cl)ccc2c1=O,-0.1%,3%,·,-2%
COc1ccc(S(=O)(=O)N(C)c2ccc(C(=O)Nc3ccccc3C(=O)N3CCOCC3)cc2)cc1,0.6%,-6%,·,-5%
CCOC(=O)c1oc2ccc(S(=O)(=O)n3nc(-c4ccc(Cl)cc4)cc3N)cc2c1C,-4.7%,0%,-3,-7%
O=C(COC(=O)Cc1c(Cl)cccc1Cl)Nc1ccc2[nH]c(=O)[nH]c2c1,0.0%,·,·,40%
CCC(Sc1nc2cc3c(cc2c(=O)n1Cc1ccco1)OCO3)C(=O)NCCOC (stereo not drawn),-1.0%,0%,-1,19%
COc1ccc(OC)c(S(=O)(=O)Nc2c(NC3CCCCC3)c3ccccc3oc2=O)c1,-1.1%,-4%,·,0%
CN(CC(=O)Nc1ccc(N2CCOCC2)cc1)C(=O)c1cc(S(=O)(=O)N(C)C)ccc1Cl,-2.8%,-11%,·,19%
O=C(NC(=S)NCC1CCCO1)c1cccc([N+](=O)[O-])c1 (stereo not drawn),-3.3%,-4%,1,12%
COc1ccccc1NC(=O)CSc1nc2sc(C)c(C)c2c(=O)n1Cc1ccco1,-0.3%,-19%,-8,-12%
COc1ccc(NC(=O)C2CC(=O)N(C)C(=Nc3ccc4c(c3)OCO4)S2)cc1 (stereo not drawn),-0.2%,14%,-13,-23%
COc1ccccc1N1CCN(C(=O)CCC(=O)N2CCN(c3ccccc3OC)CC2)CC1,0.8%,1%,·,1%
C[N+](C)(CC#Cc1ccccc1)CC(=O)c1ccccc1,0.8%,-3%,4,0%
Cc1ccc(N(C(=O)c2ccc(Br)o2)C2C=CS(=O)(=O)C2)cc1 (stereo not drawn),0.1%,-6%,-12,?
COc1ccc2[nH]c(=O)c(CN(Cc3cccs3)C(=S)Nc3ccccc3)cc2c1,·,-11%,3,·
COc1ccc(CN2CCN(S(=O)(=O)c3ccc(C)cc3)CC2)cc1OC,-0.6%,·,·,-8%
Cc1ccsc1C(=O)NNC(=O)CCN1CCN(c2ccccc2)CC1,1.1%,·,·,-1%
CC1CCN(CCNC(=O)CN(C)S(=O)(=O)c2cccc3nsnc23)CC1,-0.1%,1%,-5,4%
O=C(NC1CCCCC1)NS(=O)(=O)c1ccc2c(c1)CCC2,-1.0%,·,·,7%
CC1CCCN(c2nc3nonc3nc2Nc2ccccc2F)C1 (stereo not drawn),-1.1%,-2%,0,-7%
Cc1c(Cl)cccc1NC(=O)c1cccnc1,-4.5%,-13%,·,3%
Cc1ccc(/C=N/NC(=O)CSc2nnc(-c3ccc(Cl)cc3)n2-c2ccccc2)o1,0.1%,23%,-4,8%
Clc1cccc(Cl)c1/C=C/c1ccn[nH]1,-2.1%,-15%,·,-4%
COc1cc(C2c3[nH]c4ccccc4c3C[C@@H]3C(=O)N(Cc4ccco4)CC(=O)N23)cc(OC)c1OC (stereo partly drawn),0.0%,12%,·,-16%
CC1CCC(NC(=O)c2ccc(NC(=O)CC3SC(N4CCCC4)=NC3=O)cc2)CC1 (stereo not drawn),-1.8%,·,·,-8%
COC(=O)c1cc(OC)nc2ccc(Br)cc12,0.0%,-1%,1,13%
O=S(=O)(NC1c2cccc3cccc(c23)C1N1CCNCC1)c1ccccc1 (stereo not drawn),?,-11%,-2,-4%
CCOC(=O)Oc1ccc2c(c1)C(C)=CC(C)(C)N2C(=O)OCC,4.5%,-9%,-7,-12%
NC(=O)c1ccc(Oc2ccc(Cl)cc2)c([N+](=O)[O-])c1,-6.9%,2%,-5,-9%
CCOC(=O)C(=CNc1ccccc1Cl)C(=O)OCC,1.2%,-9%,-7,22%
Cc1ccccc1CN(C)c1ccc(S(=O)(=O)N2CCN(C)CC2)cn1,-2.3%,·,·,6%
CC(=O)C1=C(C)NC2=C(C(=O)CC(C)(C)C2)C1C (stereo not drawn),?,15%,2,?
COc1ccc(S(=O)(=O)N2CCOCC2)cc1NC(=O)c1cccs1,-3.1%,·,·,1%
Nc1c2c(nc3ccc(Br)cc13)N(C1CCCCC1)CC2,·,14%,-28,·
COc1cc(OC)c(C2SCCS2)c(OC)c1,-1.5%,-12%,1,-6%
Cc1ccc(C2(C)NC(=O)N(CC(=O)N(C)CC(=O)Nc3cccc(F)c3)C2=O)cc1 (stereo not drawn),-4.6%,·,·,5%
CCCOC(=S)Nc1ccccc1,1.3%,-16%,1,-2%
CCOC(=O)c1cnc2c(OC)cccc2c1NCc1cccnc1,0.5%,14%,4,-1%
Clc1ccc(N2CCN(c3cnc4ccccc4n3)CC2)cc1,0.4%,-20%,0,-18%
CC(C)Oc1ccc(C(=O)Nc2ccc(NC(=O)c3ccco3)c(Cl)c2)cc1,?,-26%,7,-1%
CCc1cccc(NS(=O)(=O)c2c(C)nc3sc(CC)nn3c2=O)c1,-2.0%,4%&15%,·,8%
N#Cc1ccc[n+](CC(=O)c2ccc(NC(=O)c3ccccc3)cc2)c1,-5.8%,-32%,-14,-9%
Clc1ccc(CNc2ncnc3[nH]ncc23)cc1Cl,-0.3%,·,·,1%
CCCn1c(SCC(=O)OCc2ccccc2)nc2c1c(=O)n(C)c(=O)n2C,1.0%,2%,5,5%
O=C(Cn1nnc2c(cnn2-c2ccc(F)cc2)c1=O)c1ccccc1F,-4.4%,-5%,-27,9%
CCOC(=O)C1CCN(c2nc(N)c3c(N)nc(SCC(=O)O)cc3c2C#N)CC1,?,5%,2,?
O=C(COC(=O)Cn1cnc2ccccc21)Nc1ccccc1C(F)(F)F,-0.5%,·,·,13%
CCOC(=O)C1(CCOc2ccccc2)CCN(CC=C(C)C)CC1,-2.4%,2%,·,-3%
Cc1cc(S(=O)(=O)N2CCOCC2)ccc1OCC(=O)Nc1cccc(F)c1,-1.2%,1%,·,4%
CCc1nn(CCCC(=O)Nc2ccc(C)cc2C)c(=O)c2cc3occc3n12,-0.4%,-17%,·,-10%
c1cncc(-c2nc(N3CCOCC3)c3c4c(sc3n2)CCC4)c1,0.0%,-16%,-2,27%
N#Cc1cc([N+](=O)[O-])ccc1N1CCN(c2ccccc2O)CC1,-1.2%,-12%,-29,33%
COc1ccccc1/C=N/n1c(N)c(C(=O)NC2CCCCC2)c2nc3ccccc3nc21,?,0%,-7,-20%
COc1cc(/C=N/NC(=O)CCN2CCN(C)CC2)cc2c1OCO2,-2.7%,0%,·,0%
Cc1[nH]nc(-c2ccc(O)cc2O)c1-c1nc2ccccc2s1,-2.2%,-12%,-8,-3%

Later entries.
molecule,Rango-impB inh,miR-21 reporter,GLA inh pH 4.5,Rango release inh
O=C(Cn1cnc2c(nnn2Cc2ccc(F)cc2)c1=O)NCc1ccc2c(c1)OCO2,0.2%,-6%,8,22%
O=C1CCCC/C1=C\Nc1ccc(Cl)cn1,4.1%,-53%,-6,1%
Cc1ccc(S(=O)(=O)/C=C2\NC(=O)CS2)cc1,?,-2%,-2,-30%
O=C(O)/C=C/c1ccc(S(=O)(=O)Nc2cccnc2)cc1,2.1%,2%,·,1%
CC(=O)c1ccc(NC(=O)C[n+]2ccc(N(C)C)cc2)cc1,-1.3%,2%,·,-1%
O=C(O)C(CCc1ccccc1)N1C(=O)c2ccccc2C1=O (stereo not drawn),2.1%,·,·,9%
Cc1ccc(S(=O)(=O)N2C(=O)CCC2C(=O)O/N=C(\N)c2cccc([N+](=O)[O-])c2)cc1 (stereo not drawn),-0.9%,-2%,·,1%
COCCNC(=O)/C(C#N)=C/c1cccc(/C=C(\C#N)C(=O)NCCOC)c1,-0.6%,?,-6,-8%
CN=C1N(C)C[C@@H]2[C@@H]3C(=O)N(C)C(=O)[C@@H]3[C@](C)(C(=O)OC)N12,-4.3%,·,·,-8%
COc1ccc(CNC(=O)CSCc2c(F)cccc2Cl)cc1,?,-10%,-4,-13%
Cc1ccc(NC(=O)N2CCSc3ccccc32)cc1,-3.2%,-29%,13,-4%
COc1ccc(CN(C)C(=O)Cn2cc(C)c(=O)[nH]c2=O)cc1OC,-4.2%,·,·,?
O=S(=O)(NCCc1ccccn1)c1ccc(OC(F)(F)F)cc1,2.1%,-1%,·,-7%
Cc1cc(=O)[nH]c(-c2cccs2)n1,0.0%,-3%,0,34%
CCOC(=O)C1CCN(C(=O)c2ccc3nc(-c4ccc(OC)cc4)c(-c4ccc(OC)cc4)nc3c2)CC1,?,2%,·,16µM*
C=CCNC(=O)CN(c1cc(Cl)ccc1OC)S(=O)(=O)c1ccc(C)c([N+](=O)[O-])c1,-2.3%,5%,-2,-11%
O=C(CCNC(=O)c1ccc(Cl)cc1)NCc1ccccc1Cl,-0.4%,·,·,15%
CCOC(=O)/C=c1\sc2n(c1=O)CCN=2,0.2%,-1%,5,16%
Cc1cc2n(n1)SC(Nc1cccc3ccccc13)N2 (stereo not drawn),-1.9%,-36%,-1,-8%
CC(=O)Nc1ccc(NC(=O)CSC2=NCCS2)cc1,-2.0%,-2%,-1,11%
C=CCNC(=S)NNC(=O)COc1c(Cl)cc(Cl)cc1Cl,-4.2%,-6%,4,-8%
Cc1ccc(C(NC(=O)NC(C)c2ccccc2)C(Cl)(Cl)Cl)cc1F (stereo not drawn),-0.2%,?,-5,43%
CCOC(=O)N1CCN(C(=O)Nc2ccc3nccnc3c2)CC1,?,-13%,-7,0%
O=C(O)c1nn(CC(=O)N2CCCCCC2)c(=O)c2ccccc12,-1.2%,0%,-2,-12%
COc1cccc(C2C=C(c3ccc(OC)cc3OC)Nc3nnnn32)c1 (stereo not drawn),?,26%,6,?

Reprinted at random: 5 entries already listed
molecule,Rango-impB inh,miR-21 reporter,GLA inh pH 4.5,Rango release inh
Cc1ccc(C(NC(=O)NC(C)c2ccccc2)C(Cl)(Cl)Cl)cc1F (stereo not drawn),-0.2%,?,-5,43%
CC(=O)Nc1ccc(NC(=O)CSC2=NCCS2)cc1,-2.0%,-2%,-1,11%
CCOC(=O)/C=c1\sc2n(c1=O)CCN=2,0.2%,-1%,5,16%
CCOC(=O)N1CCN(C(=O)Nc2ccc3nccnc3c2)CC1,?,-13%,-7,0%
COc1cccc(C2C=C(c3ccc(OC)cc3OC)Nc3nnnn32)c1 (stereo not drawn),?,26%,6,?

Assay outcomes: PubChem, National Center for Advancing Translational Sciences (NCATS)

The list is partial; rates above refer to the full screens.
